MgrA DNA FP – S. aureus MgrA activity modulators, primary screen, biochemical, S. aureus Newman, fluorescence polarization. hit rate 0.13% among 84,000. inhibition, %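 (about 10 µg/mL by stock and volumes)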. MgrA-DNA binding;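 active = above 50% in either of two replicates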;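 note: 0% = protein plus DNA without compound and 100% = DNA alone without protein; higher means less MgrA bound to DNA so lower polarization; one replicate is shown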
Sa helicase inh – inhibitors of S. aureus replicative helicase, primary screen, biochemical, fluorescence unwinding readout; replicative DNA helicase (DnaC/DnaB), Staphylococcus aureus; purified S. aureus helicase, fluorescence unwinding assay; about half of the hits fall short of the stated cut; inhibition, %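 (tested at about 80 µM)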; hit rate 0.05% among 120,000;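 active = both duplicates at 50% or more, or one of them with a favoured structure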;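 note: 0% = mean of negative control wells and 100% = mean of positive control wells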
Starred values were filed as active, the others as inactive; . = no result given; & = joins results of further samples. An excerpt (hit frequency here may not be typical).

canonical_smiles	MgrA DNA FP	Sa helicase inh
O=S(=O)(c1ccc(N=Cc2cc(Cl)cc(Cl)c2O)cc1)c1ccc(N=Cc2cc(Cl)cc(Cl)c2O)cc1	3.5	.
CC(=O)N1CCc2cc(NC(=S)Nc3ccccc3Cl)ccc21	0.7	.
O=C(/C=C/c1cccs1)Oc1ccccc1Cl	-1.2	.
O=C(NCCSCc1ccc2nonc2c1)c1ccc(Cl)cc1Cl	.	-19
CC(C)Nc1nnc(SCc2cc(=O)n3ccsc3n2)s1	.	8
CCOc1ccc2nc(N3CCCC(C(=O)NC)C3)sc2c1 (stereo not given)	0.5	12
COc1ccccc1N1CCN(C(=S)Nc2ccc(S(=O)(=O)N3CCOCC3)cc2)CC1	-1.0	12
Cc1ccccc1OCc1nnc2c3cnn(C)c3ncn12	.	5
Cc1ccc(CNS(=O)(=O)c2ccc3oc(C(=O)O)c(C)c3c2)cc1	-0.7	10
O=C1CC(Nc2ccc(N3CCOCC3)cc2)C(=O)N1c1ccccc1C(F)(F)F (stereo not given)	.	28
CC(OC(=O)c1ccc2c(=O)n3c(nc2c1)CCCCC3)C(=O)N1CCCc2ccccc21 (stereo not given)	.	-4
O=C(Cn1ncc2ccccc21)N1CCN(c2ccccc2)CC1	0.4	6
O=C1CN(C(=O)c2ccco2)c2ccccc2N1	1.9	9
COc1ccc(C2c3sc(=O)[nH]c3SC3C(=O)N(c4ccc(Br)cc4)C(=O)C32)cc1 (stereo not given)	.	6
CCCCC(=O)Nc1sc2c(c1C#N)CCCC2	1.2	4
CCN(Cc1cccc(Cl)c1)C(=O)c1cnc(OC)cc1C(F)(F)F	-1.8	.
Cc1ccc(C(=O)CC#N)cc1	-0.8	.
CC(C)OCC(O)CN1CCN(Cc2ccccc2)CC1 (stereo not given)	.	-1
COc1ccc(NC(=O)C2CC(=O)NC3=C2C(=O)CCC3)cc1 (stereo not given)	.	-27
CC(NC(=O)Nc1ccc(F)cc1F)C1CCCO1 (stereo not given)	-0.7	9
CCN(CC(=O)Nc1ccc2c(c1)OCCO2)C(=O)c1ccc(CS(C)(=O)=O)cc1	.	16
O=C(O)Cn1c(SCc2cccc3ccccc23)nc2ccccc21	0.2	.
CC(Sc1ccc(S(=O)(=O)N2CCOCC2)cn1)C(N)=O (stereo not given)	.	9
CCOC(=O)C1=C(C)N(c2nonc2NC(C)=O)C(N)=C(C#N)C1c1ccc(Br)cc1 (stereo not given)	-1.2	-8
Cc1ccc(-c2n[nH]c3c2C(c2ccc(C(C)C)cc2)NC3=O)cc1 (stereo not given)	.	-16
O=S(=O)(NCc1ccc(Br)cc1)c1ccc(F)cc1	.	-19
Oc1ccccc1C=Nc1cccc(C(F)(F)F)c1	-2.0	.
CC(NC(=O)C(Cc1ccccc1)n1cccc1)c1ccccc1 (stereo not given)	0.9	15
COc1ccc(Nc2nc(NCCN3CCOCC3)nc3c2cnn3C)cc1Cl	-0.2	8
COc1cccc(-c2cc3nc(-c4ccccc4)cc(N4CCC(O)CC4)n3n2)c1	-0.1	3
Cc1nc(Cl)c2sc(=S)n(-c3ccccc3)c2n1	0.1	3
CCOC(=O)N1CCN(CC(O)COc2ccc3ccccc3c2)CC1 (stereo not given)	.	12

Structures above with fluorine (five):
canonical_smiles	MgrA DNA FP	Sa helicase inh
O=C1CC(Nc2ccc(N3CCOCC3)cc2)C(=O)N1c1ccccc1C(F)(F)F (stereo not given)	.	28
CCN(Cc1cccc(Cl)c1)C(=O)c1cnc(OC)cc1C(F)(F)F	-1.8	.
CC(NC(=O)Nc1ccc(F)cc1F)C1CCCO1 (stereo not given)	-0.7	9
O=S(=O)(NCc1ccc(Br)cc1)c1ccc(F)cc1	.	-19
Oc1ccccc1C=Nc1cccc(C(F)(F)F)c1	-2.0	.

Next section
canonical_smiles	MgrA DNA FP	Sa helicase inh
CCOC(=O)Nc1ccc2c(c1)N(C(=O)CCN(CC)CC)c1ccccc1S2=O (stereo not given)	.	-30
NC(=O)c1ccccc1N=Cc1ccc(Br)s1	-2.1	2
O=C(NCCN1Cc2ccccc2C1=O)c1ccc(Cl)cc1	2.8	6
COc1cc(OC)cc([C@@H]2[C@@H](C(C)(C)C)C(C#N)(C#N)[C@H]3c4ccccc4C=CN23)c1	1.6	10
N#C/C(=C\c1ccccc1Cl)c1cccc(Cl)c1	3.0	.
CCOC(=O)C1CCN(CC(=O)CNc2ccc(Cl)c(Cl)c2)CC1	.	-10
Cc1sc2c(c1C)CSCC2=O	.	26
N=c1c2ncn(C3OC(CO)C(O)C3O)c2ncn1O (stereo not given)	-0.5	.
O=C(CN1C(=O)COc2ccccc21)NC1CC1	-1.9	15
Cc1ccc(C2CC(c3cc(Br)ccc3O)=NN2)cc1 (stereo not given)	.	-5
c1ccc2c(c1)nc(N1CCCC1)n2CCN1CCCCC1	-2.2	0
CCn1c(SCC(=O)c2cc(C)n(CC3CCCO3)c2C)nnc1-c1ccccc1 (stereo not given)	.	-6
O=C(/C=C(\O)c1ccccc1)C(=O)Nc1ccccc1	1.6	9
COc1ccc(C(=O)CC#N)cc1	0.0	.
O=C(CC(Cc1ccccc1)C(=O)O)Nc1cccc(C(F)(F)F)c1 (stereo not given)	0.8	9
COc1cc(/C=C/C(=O)N2CCC(C)CC2)ccc1OCc1ccccc1	1.0	6

Laid out differently: entries from further up.
> O=C(CN1C(=O)COc2ccccc21)NC1CC1
- MgrA DNA FP: -1.9
- Sa helicase inh: 15

> Cc1ccc(C2CC(c3cc(Br)ccc3O)=NN2)cc1 (stereo not given)
- MgrA DNA FP: .
- Sa helicase inh: -5

> c1ccc2c(c1)nc(N1CCCC1)n2CCN1CCCCC1
- MgrA DNA FP: -2.2
- Sa helicase inh: 0

> CCn1c(SCC(=O)c2cc(C)n(CC3CCCO3)c2C)nnc1-c1ccccc1 (stereo not given)
- MgrA DNA FP: .
- Sa helicase inh: -6

(further entries)
canonical_smiles	MgrA DNA FP	Sa helicase inh
COC(=O)c1c(N)n(-c2ccc(C)c(C)c2)c2nc3ccccc3nc12	.	-11
CN(Cc1ccccc1)c1oc(COc2ccccc2F)nc1C#N	.	12
COc1cc2c(c(OC)c1OC)-c1ccc(OC)c(=O)cc1[C@@H](NC(C)=O)CC2	-1.4&4.3	.
O=C(N/N=C/c1ccc(F)cc1)c1c(O)c2c([nH]c1=O)CCCC2	.	12
N#Cc1ccc(C(=O)N(CC(=O)Nc2ccccc2C(F)(F)F)Cc2ccco2)cc1	.	-7
Cc1cc(C(=O)N2CCC(C(=O)O)CC2)c(C(F)(F)F)o1	-3.0	.
COc1cc(/C=C2/C(=O)N(c3ccc(Cl)c(Cl)c3)N=C2C)ccc1OCC(=O)O	-0.7	.
O=C(Oc1ccc2ccccc2c1)c1ccccc1Cl	-1.6	-4

A different layout for part of the listing above:
O=C(O)Cn1c(SCc2cccc3ccccc23)nc2ccccc21
  MgrA DNA FP: 0.2
  Sa helicase inh: .

CC(Sc1ccc(S(=O)(=O)N2CCOCC2)cn1)C(N)=O (stereo not given)
  MgrA DNA FP: .
  Sa helicase inh: 9

CCOC(=O)C1=C(C)N(c2nonc2NC(C)=O)C(N)=C(C#N)C1c1ccc(Br)cc1 (stereo not given)
  MgrA DNA FP: -1.2
  Sa helicase inh: -8

Cc1ccc(-c2n[nH]c3c2C(c2ccc(C(C)C)cc2)NC3=O)cc1 (stereo not given)
  MgrA DNA FP: .
  Sa helicase inh: -16

(further entries)
canonical_smiles	MgrA DNA FP	Sa helicase inh
O=C(CSC(=S)N1CCCC1)Nc1ccccc1OC(F)F	.	0
CC(CCc1ccccc1)NC(=O)CSc1ncnc2ccccc12 (stereo not given)	-0.9	-6
Nc1ccc(Cn2cccn2)cc1	0.9	-13
O=C(O)CSc1ccc(S(=O)(=O)N2CCCC2)cn1	.	4
COc1ccccc1CNC(=O)c1cnc2ccc(S(=O)(=O)N3CCOCC3)cc2c1Cl	.	-19
CCOC(=O)c1sc(SC(C)C)c2c1-c1ccccc1N(C)S2(=O)=O	-0.9	.
O=C(CC1CCCCC1)Nc1nc2ccccc2s1	0.7	16
O=c1cc(-c2c(F)c(F)c(F)c(F)c2F)oc2ccccc12	.	-14
Cc1cc(=O)oc(C)c1C(=O)O	.	2
CCc1oc2ccccc2c1C(=O)c1ccc(OC(C)=O)cc1	-0.4	10
COc1ccccc1NC(=O)Nc1nnc(N2CC(C)CC(C)C2)s1 (stereo not given)	-2.2	-3
CCCC(=O)Nc1ccccc1-c1nnc(SC)[nH]c1=O	.	9
COc1ccc(-c2csc(-c3cccs3)n2)c(OC)c1	.	-6
Cc1cnc(C(=O)Nc2cc(S(C)(=O)=O)ccc2Cl)cn1	.	21
Fc1ccc2nc(-c3ccc(Cl)c(Cl)c3)cnc2c1	1.7	.
COc1ccccc1CC(=O)N1CCN(c2ccc(C(F)(F)F)cn2)CC1	.	7
O=c1[nH]c(SCC2CCCCO2)nc2ccccc12 (stereo not given)	.	2
CCOC(C)=C(C#N)C#N	.	5
COc1cc(CC(=O)O)cc(OC)c1OC	.	11
N#Cc1c(F)cccc1Oc1ccc(F)cc1	-1.3	.
Nc1cc(-c2ccccc2)no1	.	-9
COc1ccc(C(C2=C(O)CCCC2=O)c2cc3c(cc2O)OCO3)cc1 (stereo not given)	-1.9	13
Cn1c2ccccc2c2cnn(CC(=O)N3CCCC3)c(=O)c21	-0.7	11
CCOC(CCn1c(SC)nc2c(sc3ccccc32)c1=O)OCC	4.1	2

Next part:
Under each structure: MgrA DNA FP, Sa helicase inh
CCOc1cc(-c2cccs2)nc(N)n1
    -0.1, .
O=c1[nH]c2ccccc2n2nnnc12
    ., 21
CCN(CC)c1ccc(NC(C)=O)c(C)c1
    0.9, 9
NC(=O)COC(=O)COc1ccc(OCc2ccccc2)cc1
    ., 2
COc1ccccc1NC(=O)CC(C(=O)O)N(C)C (stereo not given)
    ., 1
CCOC(=O)c1cn(CC(=O)Nc2ccccc2CC)nn1
    ., -26
O=C(COc1ccccc1)NCc1cn2ccsc2n1
    2.8, 1
Cc1cc(/C=N/NC(=S)NCC2CCCO2)c(C)n1CC(C)C (stereo not given)
    ., -1
O=c1[nH]nc(-c2cccs2)c2ccccc12
    ., 17
Cc1nn(C)c2sc(C(=O)NCc3ccc(N4CCN(C)CC4)cc3)cc12
    -1.6, .
O=C(NC1c2ccccc2-c2ccccc21)c1ccco1
    ., 9
CCC(NC(=O)NCc1cccnc1)(C(F)(F)F)C(F)(F)F
    0.0, 7
COc1cc2ccc3c(CCN(C)C)cc(OC)c(OC)c3c2cc1OC
    -3.7, 10
COC(=O)Cn1c2ccccc2c2nc(C)sc21
    -2.2, 3
O=C(C=C1SCCS1)c1cccs1
    -1.1, .
Cc1ccc(C(=O)CC(c2ccccc2)S(=O)(=O)c2ccccc2)cc1 (stereo not given)
    ., 18
CCOc1ccccc1C(=O)Nc1nc2ccc(S(C)(=O)=O)cc2s1
    -1.1, -7
N#Cc1cccc2c(Oc3ccccc3)cc(C(F)(F)F)nc12
    -5.9, .
Cc1cccc(N2CCN(C(=O)C3CCCN(C(=O)c4cc5sccc5n4C)C3)CC2C)c1 (stereo not given)
    ., 15
Cc1cccc2c1-c1sc(C(=O)NCCN3CCN(c4cccc(Cl)c4)CC3)cc1CO2
    2.7, 8
Cc1cccc(NS(=O)(=O)c2ccc3c(c2)CC(=O)N3)c1
    ., -21
CCNc1nc(NCC)nc(N(n2cnnc2)S(=O)(=O)c2ccc(C)cc2)n1
    2.2, 6
CCOC(=O)c1c(-c2cccs2)csc1NC=O
    0.2, 12
O=C1NC2=C(C(=O)NN(c3ccccc3)C2)C(c2ccccc2)N1 (stereo not given)
    ., 5
COc1ccc(C(O)c2nc3ccccc3n2C(C)C)cc1 (stereo not given)
    -1.9, 4
CNS(=O)(=O)c1ccc(NC(=S)Nc2ccc3c(c2)OCO3)cc1
    15, 15
O=C1CCCCC1Sc1ncnc2sccc12 (stereo not given)
    ., 5
COc1ccc(O)c(C=Nc2cc(C(F)(F)F)ccc2Oc2ccccc2)c1
    -2.1, -8
NC(=O)NC1C(=O)c2ccccc2OC1c1ccccc1 (stereo not given)
    0.2, .
O=C(CCC1COc2ccccc2O1)Nc1ccc(C(=O)O)cc1 (stereo not given)
    ., 13
CC(CC(=O)Nc1ccccc1)c1ccccc1 (stereo not given)
    1.6, -10
CC(C)CCn1c(O)c(N=NC(=O)Cn2ccc(C(F)(F)F)n2)c2ccccc21
    ., 2
CCCn1c(N2CCN(CC(=O)NCc3cccs3)CC2)nc2ccccc21
    -6.7, 9
CCCCn1c(=O)n(C)c(=O)c2c1nnn2CC(=O)N1CCCc2ccccc21
    ., 5
O=C(Nc1nncs1)c1ccncc1
    -2.8, .
Cc1ccc(N2C(=O)CC(Sc3nc(C)cc(C)c3C#N)C2=O)cc1 (stereo not given)
    3.5, .
COc1ccc(CNC(=O)C(C)n2nnc(-c3ccc(OC)c(OC)c3)n2)cc1 (stereo not given)
    ., -9
O=S(=O)(NCc1ccc2[nH]c3c(c2c1)CCCC3)c1ccccc1
    0.2, 7
CC(C)CC(C(=O)N(C)Cc1ccccc1)N1Cc2ccccc2C1=O (stereo not given)
    ., -6
Cc1nnc2ccc(NCCc3ccc(S(N)(=O)=O)cc3)nn12
    ., -9
N#Cc1cccc(CSc2nc3ccc(C(F)(F)F)cc3[nH]2)c1
    2.6, .
c1ccc(C(c2ccccc2)N2CCN(CC3(c4ccccc4)OCCO3)CC2)cc1
    -0.5, 2
CCCN=Cc1c(CCC)[nH]n(-c2nc3ccccc3s2)c1=O
    ., -30
O=C(Nc1ccccc1)Nc1ccccc1C(=O)NC1CCSC1 (stereo not given)
    0.7, .
CNc1nc(N)c(C(=O)C(C)(C)C)s1
    -1.2, 12
O=C(NC1CC1)c1cc(-c2cccnc2)nc2ccccc12
    2.7, 16

Assay outcomes as filed in PubChem BioAssay.
